ClpP mod: qHTS Assay for Activators of ClpP | purified B. subtilis ClpP, FRET peptide cleavage, 20 min | AID 651965, 2013 | ATP-dependent Clp protease proteolytic subunit (Bacillus subtilis (strain 168)), P80244 | 340,000 compounds, 1.9% hits | Potency, µM (series often up to 57.5 µM), inactives show at the highest dose activity change, negative = active; active = well fitted falling curve with a large enough effect; inconclusive = small, poorly fitted or top-dose-only effect; inactive = no such curve, though single readings can be large or run the other way; also: the source files actives as falling curves though it sought activators and does not explain the sign; nearly all actives have a fitted effect of over 65% in size; many hits overshoot -100%
Target sequence (P80244 whole entry, looked up): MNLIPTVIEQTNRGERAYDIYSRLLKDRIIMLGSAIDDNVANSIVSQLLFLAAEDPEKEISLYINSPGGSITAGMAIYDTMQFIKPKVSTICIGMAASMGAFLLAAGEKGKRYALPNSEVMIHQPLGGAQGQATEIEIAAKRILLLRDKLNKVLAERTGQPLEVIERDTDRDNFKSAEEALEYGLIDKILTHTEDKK
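ClpP 10 microg/mL final, pH 8 Tris/KCl buffer with BSA, glycerol, Tween-20; compound pinned in; FRET-FV substrate; RT 20 min; Ex320/Em430; ΔFRET vs ADEP 5.8 microM, DMSO, no enzyme.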
The depositor's hits bear a star; ? = inconclusive. Potency is read from the fitted curve at half-maximal effect. The list is partial; rates above refer to the full screens.

item	mol	ClpP mod
1	Cc1nc2nc(SCC(=O)N(C)Cc3ccccc3)nn2c(C)c1Cc1ccccc1Cl	-7.4%
2	Cc1ccc(Nc2ccc3cc(S(=O)(=O)N4CCCCC4)ccc3n2)cc1F	5.4%
3	O=C(Nc1ccc(F)cc1)[C@H](CSCc1ccccc1)N1Cc2ccccc2C1=O	-1.6%
4	Cc1ccc(N2CC(NC(=O)Cc3ccc(F)cc3)CC2=O)cc1 (stereo unspecified)	1.3%
5	CCc1ccccc1NC(=O)C(=O)NCC(c1cccnc1)N1CCc2ccccc21 (stereo unspecified)	0.6%
6	CN1CCc2[nH]c3ccc(Cl)cc3c2C1	-5.5%
7	CCOc1cc(-c2nc3c(c(CC)nn3-c3ccccc3)c3cc(OC)c(OC)cc23)ccc1O	3.6%
8	CCCN(CCC)C(=O)Cn1c(=O)n(-c2ccc(OC)cc2OC)c(=O)c2c3c(sc21)CCC3	-0.6%
9	CCOC(=O)c1ccc(NC(=O)CCS(=O)(=O)c2ccc(C)cc2)cc1	1.4%
10	Cc1ccc(N(C)S(=O)(=O)c2ccc3[nH]c4c(c3c2)CCCC4)cc1	-3.7%
11	COc1cc(-c2ccno2)ccc1S(=O)(=O)N1CCN(c2cccc(Cl)c2)CC1	-7.7%
12	COC(=O)c1ccc2c(c1)N(Cc1cc(C)ccc1C)C(=O)c1ccccc1S2	-2.0%
13	CNc1nc(N2CCCN(C)CC2)nc2cc(OC)c(OC)cc12	3.6%
14	CC(=O)N1CCc2cc(Br)cc(S(=O)(=O)NCCc3ccc(Cl)cc3)c21	-13.0%
15	CC(C)COc1ccc(C(=O)NCC2(N3CCN(C)CC3)CCCCC2)cc1	-3.7%

Going on with the list:
item	mol	ClpP mod
16	CCc1ccc(-n2c(=O)c3c(C)c(C(=O)N(C)C)sc3n(Cc3ccccc3F)c2=O)cc1	-1.0%
17	COc1cc(CN(C(=O)c2ccc(C)cc2)c2ccccn2)cc(OC)c1OC	0.3%
18	O=C(Nc1cc(Cl)cc(Cl)c1)c1ccc(F)c(S(=O)(=O)N2CCCC2)c1	-24.1%
19	CCOCCCNC(=O)Nc1cc(C(=O)NCc2ccc(C(C)C)cc2)ccc1N1CCCC1	?
20	CCN1c2ccccc2-c2nc(SCC(=O)NCc3ccc(C)cc3)ncc2S1(=O)=O	4.4%
21	COc1ccc(CCNC(=O)c2cc3c(-c4ccc(OC)c(OC)c4)nn(C)c3s2)cc1OC	4.1%
22	CCOc1ccccc1C(=O)NCc1ccc2c(c1)CCN2C(=O)c1ccccc1	1.5%
23	CCOc1ccc(Sc2cc(C(=O)NCCCOC)c3ccccc3n2)cc1	16.8%
24	COc1ccc(CCNC(=O)c2ccc(Cn3c(=O)c4ccccc4n(Cc4cc(C)ccc4C)c3=O)cc2)cc1OC	1.1%
25	COc1ccc(-n2nc3c(N4CCCC(C(=O)NCCc5ccc(C)cc5)C4)nnc(C)c3c2C)cc1 (stereo unspecified)	4.1%
26	Cc1cccc(OC(=O)c2cc(-c3ccc(C)c(C)c3)on2)c1	1.2%
27	Cc1c(C(=O)N2CCC(c3nc4ccccc4s3)CC2)oc2ccc(Cl)cc12	-4.2%
28	CCc1ccccc1NS(=O)(=O)c1ccc(NC(=O)N2CCCC2)cc1	1.2%
29	CCc1nnc2c(NCc3ccc(F)cc3)nc3ccccc3n12	-7.8%
30	CCN1C(=O)C(Cc2nc3ccccc3c(=O)n2C)c2cc(C)ccc21 (stereo unspecified)	0.1%

Filtered by structure, those above containing an NH in an aromatic ring
item	mol	ClpP mod
6	CN1CCc2[nH]c3ccc(Cl)cc3c2C1	-5.5%
10	Cc1ccc(N(C)S(=O)(=O)c2ccc3[nH]c4c(c3c2)CCCC4)cc1	-3.7%

Values in list order from the list.
Compounds 18–22 in ClpP mod: -24.1%, ?, 4.4%, 4.1%, 1.5%

Following part
item	mol	ClpP mod
31	COc1cc(NC(=O)c2ccc(NC(=O)N3CCSc4ncccc43)cc2)cc(OC)c1	31.6µM*
32	COc1ccc(S(=O)(=O)n2nc(C)c(S(=O)(=O)N3CCCCCC3)c2C)cc1	-0.6%
33	Cc1cccc(NC(=O)CSc2nc3c(oc4ccccc43)c(=O)n2C(C)C)c1	-1.6%
34	O=C(NCC(c1ccc2c(c1)OCO2)N1CCN(c2ccccc2)CC1)C(=O)Nc1ccccc1F (stereo unspecified)	-4.3%
35	CCC(C)NC(=O)Cn1c(=O)n(-c2ccc(C)c(C)c2)c(=O)c2c(C)c(C(=O)N(CC)CC)sc21 (stereo unspecified)	2.4%
36	CCOc1cc(-c2nnc(SCC(=O)NCc3ccccc3)nc2-c2ccc(OC)c(OCC)c2)ccc1OC	0.5%
37	CCc1cccc(Nc2ncnc3onc(-c4ccc(F)cc4)c23)c1	?
38	Cn1c(=O)n(-c2ccc(F)c(Cl)c2)c(=O)c2sc3ccccc3c21	3.7%
39	Cc1ccc(NC(=O)c2sc3nc4n(c(=O)c3c2C)CCCCC4)c(Br)c1	-0.9%
40	CCN(c1ccc(OC)cc1)S(=O)(=O)c1ccc2[nH]c(=O)ccc2c1	-1.3%
41	COc1ccc(C2c3c(oc4ccc(C)cc4c3=O)C(=O)N2CCCN2CCOCC2)cc1OC (stereo unspecified)	-0.4%
42	Cc1cccc(-n2ncc(C(=O)N3CCC(C)CC3)c2C2CCN(C(=O)OC(C)(C)C)CC2)c1	0.2%
43	CCc1ccc(NC(=O)c2ccc3c(O)c(S(=O)(=O)c4ccccc4)c(=O)[nH]c3c2)cc1	-0.5%
44	COc1ccc(N2CCN(S(=O)(=O)c3ccc4c(c3)CC(C)N4C(C)=O)CC2)cc1 (stereo unspecified)	0.1%
45	COc1ccccc1NC(=O)CSc1oc(-c2cccs2)nc1S(=O)(=O)c1ccc(Br)cc1	4.8%

2 consecutive entries from above, quoted:
item	mol	ClpP mod
44	COc1ccc(N2CCN(S(=O)(=O)c3ccc4c(c3)CC(C)N4C(C)=O)CC2)cc1 (stereo unspecified)	0.1%
45	COc1ccccc1NC(=O)CSc1oc(-c2cccs2)nc1S(=O)(=O)c1ccc(Br)cc1	4.8%

Two of these compounds in another layout:
35. CCC(C)NC(=O)Cn1c(=O)n(-c2ccc(C)c(C)c2)c(=O)c2c(C)c(C(=O)N(CC)CC)sc21 (stereo unspecified)
- ClpP mod = 2.4%

36. CCOc1cc(-c2nnc(SCC(=O)NCc3ccccc3)nc2-c2ccc(OC)c(OCC)c2)ccc1OC
- ClpP mod = 0.5%

New compounds follow:
item	mol	ClpP mod
46	COc1ccc(S(=O)(=O)c2c(O)c(C)cc(NC(=O)c3ccccc3)c2C(C)C)cc1	1.3%
47	O=C1CC(c2nnc(Cc3ccc(F)cc3Cl)o2)CN1c1ccccc1 (stereo unspecified)	-0.1%
48	COc1ccc(CNC(=O)c2c(Nc3ccc(OC)cc3OC)sc(C(=O)c3ccc(Cl)cc3)c2N)cc1	-2.3%
49	Cc1ccn2c(c1)nc(=O)c1cc(S(=O)(=O)N3CCC(C)CC3)c(Cl)cc12	-9.9%
50	O=C(NCc1ccco1)C1CCN(C(=O)N2CCOc3ccc(Cl)cc32)CC1	1.2%
51	COc1ccc(CC(=O)NCC(c2ccc(Cl)cc2)N2CCOCC2)cc1 (stereo unspecified)	-0.5%
52	O=C(NCCS(=O)(=O)N1CCN(c2ccccc2F)CC1)c1ccccc1C(F)(F)F	-1.4%
53	CCOc1ccc(-c2cc3nc(C4CCN(C(=O)OC(C)(C)C)CC4)c(C(=O)Nc4cc(OC)ccc4OC)cn3n2)cc1	?
54	Cc1ccc(C(=O)N2CCc3cc(CNC(=O)c4ccccc4F)ccc32)cc1	-1.6%
55	Cc1nc(-c2ccc(Cl)cc2)sc1CCNC(=O)Cc1ccc(F)cc1	4.1%
56	Cc1cccc(NC(=O)C(c2ccccc2)N2Cc3ccccc3C2=O)c1C (stereo unspecified)	0.7%
57	CCNC(=O)c1cc2n(n1)CCCN(Cc1ccc(C)cc1)C2=O	1.3%
58	Cc1ccc(CCNC(=O)c2ccc(NC(=O)N3CC(C)Sc4ccccc43)cc2)cc1 (stereo unspecified)	-1.0%
59	COc1ccc(CNC(=O)C2CCN(Cc3nc(-c4ccc(Cl)cc4)oc3C)CC2)cc1	-1.2%
60	Cc1ccccc1NC(=O)CSc1nc2ccc(NC(=O)COc3ccccc3F)cc2s1	-3.5%

Carrying on:
item	mol	ClpP mod
61	CC(=O)c1cc(-c2ccccc2)n(CC(=O)NCc2ccccc2C)c1C	-1.8%
62	Cn1c(=O)c2c(nc(Oc3ccc(F)cc3)n2Cc2ccc(F)cc2)n(C)c1=O	-0.7%
63	CCn1cc2c(n1)-c1c(oc(C(=O)Nc3ccc(Br)cc3F)c1C)CC2	-14.4%
64	COc1cccc(Oc2nc3c(c(=O)n(Cc4ccccc4F)c(=O)n3C)n2C)c1	1.4%
65	COCCNC(=O)CCn1c(=O)c2cc(OC)c(OC)cc2n(CC(=O)Nc2ccccc2C)c1=O	4.0%
66	CCC(CC)C(=O)Nc1ccccc1C(=O)OCc1cc(=O)n2nc(C3CCCCC3)sc2n1	?
67	CN(C)c1ccc(NC(=O)CSC2=Nc3ccccc3C3=NC(CC(=O)NCc4ccc5c(c4)OCO5)C(=O)N23)cc1 (stereo unspecified)	-5.2%
68	Cc1cn(C)c(CC(=O)NCc2cccc(Cl)c2)c1C(=O)O	-1.5%
69	CC(=O)C(Sc1nc(-c2ccccc2Cl)nc2c1c(=O)n(C)c(=O)n2C)C(=O)N(C)C (stereo unspecified)	1.0%
70	CCOc1ccccc1CNC(=O)c1oc2ccc3c(c2c1C)C(=O)CC(C)(C)O3	-8.4%
71	COc1ccc(C2Sc3ccccc3NC3=C2C(=O)c2ccccc23)c(OC)c1OC (stereo unspecified)	-5.8%
72	COc1ccc(CC(=O)NCc2nc3cccnc3n2Cc2ccc(F)cc2)cc1OC	-1.8%
73	Cc1nc2ccccc2nc1-c1csc(-c2ccccc2)n1	-27.1%
74	O=C(NCCOCCn1c(=O)oc2ccccc21)Nc1cccc(Cl)c1	1.4%
75	Cc1cccc(N(C)C(=O)CCS(=O)(=O)c2ccc3c(c2)n(C)c(=O)c(=O)n3C)c1	-20.7%

(further entries)
item	mol	ClpP mod
76	CCOC(=O)C1CCN(C(c2ccc(OCC)cc2)c2c(O)cc(C)n(CCOC)c2=O)CC1 (stereo unspecified)	-1.2%
77	Cc1ccc(C(=O)COC(=O)c2cccc(NC(=O)c3ccc(Cl)cc3Cl)c2)cc1	-2.4%
78	O=C1C(=O)N(C2CCN(C(=O)c3ccc(F)cc3)CC2)CCN1Cc1ccc(F)cc1	1.0%
79	COc1ccccc1NC(=O)c1c(NCc2ccc(OC)c(OC)c2OC)sc2c1CCCC2	-2.9%
80	Cc1ccc(C)c(NC(=O)c2ccc3c(O)c(S(=O)(=O)c4ccc(Cl)cc4)c(=O)[nH]c3c2)c1	-8.6%
81	Cc1cc(C)cc(NC(=O)c2ccc3c(O)c(S(=O)(=O)c4ccccc4)c(=O)[nH]c3c2)c1	-4.4%
82	Cc1ccc(C)c(N2CCN(c3nccn4nc(-c5ccc(Br)cc5)cc34)CC2)c1	-0.9%
83	CC(C)Cn1cc(NC(=O)NCc2ccc(Cl)cc2)c2ccccc2c1=O	3.9%
84	COc1ccc(C)c2sc(N(Cc3cccnc3)C(C)=O)nc12	-2.7%
85	O=c1c2nncn2ccn1-c1ccc(F)c(F)c1	0.4%
86	COc1ccc(CNC(=O)c2ccc(CN3C(=O)C(C)=C(c4ccc(C)cc4)S3(=O)=O)cc2)cc1	-22.0%
87	COCCCNC(=O)c1sc2ncccc2c1-n1cccc1	-3.6%
88	CCOCCCNC(=O)NC(C)c1c(-n2cccc2)sc2c1CCN(CC)C2 (stereo unspecified)	5.4%
89	O=C(Nc1ccc(F)cc1)[C@H](Cc1ccccc1)N1Cc2ccccc2C1=O	-0.5%
90	CCOc1ccc(C(=O)Nc2cc(-c3ccccc3)no2)cc1	-0.8%

(more compounds)
item	mol	ClpP mod
91	Cc1cccc(-c2noc(-c3ccc(NCc4ccco4)c([N+](=O)[O-])c3)n2)c1	-1.4%
92	COC(=O)c1ccc(NC(=O)c2c(NCc3ccc(OC)c(OC)c3)sc3c2CCCC3)cc1	-0.9%
93	O=C(Nc1c(Cl)cccc1Cl)c1cccc2c1C(=O)N(C1CCCCC1)C2	0.6%
94	COc1cc(NC(=O)CN2C(=O)C(c3ccc(Cl)cc3)=NC23CCCCC3)cc(OC)c1	-4.3%
95	Cc1cccc(CSc2nnc(CCCCCN)o2)c1	4.7%
96	Cn1c(SCc2ccc(F)cc2)nc2ccc(C(=O)NCc3ccccc3)cc21	-3.0%
97	O=C(CSc1oc(-c2ccccc2)nc1S(=O)(=O)c1ccc(Br)cc1)NC1CCCCC1	?
98	Cc1cc(-c2ccc(C)c(S(=O)(=O)N3CCC(C)CC3)c2)on1	-2.5%
99	CCOc1ccc(CNC(=O)c2oc3c(c2C)-c2nn(Cc4cccc(Cl)c4)cc2CC3)cc1	-26.6%
100	CCCC(CCC)C(=O)NC1CC(=O)N(c2ccc3c(c2)OCCO3)C1 (stereo unspecified)	-1.1%
101	COc1cccc(C(=O)Nc2ccc3nc(SCC(=O)N(C)c4ccccc4)sc3c2)c1	-29.6%
102	CC(=O)c1ccc(NC(=O)CC2Sc3ccccc3NC2=O)cc1 (stereo unspecified)	-4.4%
103	O=C(Nc1ccccc1C(F)(F)F)c1ncoc1-c1ccco1	4.6%
104	COCCc1nn2c(=O)cc(COC(=O)c3ccco3)nc2s1	-3.1%
105	Cc1csc2nc(-c3ccc(NS(=O)(=O)c4cc(F)ccc4F)cc3)cn12	-0.1%
106	Cc1ccccc1NC(=O)N1CCc2cc(S(=O)(=O)N3CCC(C)CC3)ccc21	-2.4%
107	Cc1nc2ccn(Cc3cccnc3)c(=O)c2cc1C(=O)NCc1ccc(Cl)cc1	12.6µM*
108	Cc1c(NC(=O)c2cc([N+](=O)[O-])ccc2N2CCOCC2)cccc1-c1nc2ccccc2o1	0.9%

Compound activity: PubChem, National Center for Advancing Translational Sciences (NCATS)
